VDR inhibitor: vitamin D3 receptor (human) inhibition | VDR-SRC2-3 peptide fluorescence polarization, 2 h | Potency, µM, without a hit: max response, negative = inhibition, actives largely listed as inhibitors | 0.93% of 400,000 active | AID 504847; active means well fitted inhibition curve with a large enough effect; inconclusive means small, poorly fitted or top-dose-only effect, or another doubt; inactive means no such curve, though single readings can be large or run the other way; further: series mostly up to about 120 µM
Target sequence (P11473 whole entry, looked up): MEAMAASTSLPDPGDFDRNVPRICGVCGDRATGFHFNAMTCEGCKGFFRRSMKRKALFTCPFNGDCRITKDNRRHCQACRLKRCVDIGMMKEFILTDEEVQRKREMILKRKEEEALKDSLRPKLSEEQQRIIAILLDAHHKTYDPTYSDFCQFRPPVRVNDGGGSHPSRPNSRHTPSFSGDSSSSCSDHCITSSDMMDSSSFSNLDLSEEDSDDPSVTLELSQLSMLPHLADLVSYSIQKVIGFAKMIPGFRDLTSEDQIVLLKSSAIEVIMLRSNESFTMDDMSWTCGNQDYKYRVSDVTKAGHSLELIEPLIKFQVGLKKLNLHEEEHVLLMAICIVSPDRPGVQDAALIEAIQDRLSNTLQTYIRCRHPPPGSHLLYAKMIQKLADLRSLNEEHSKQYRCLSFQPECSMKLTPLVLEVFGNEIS
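Inhibition of the VDR/SRC2-3 peptide interaction is quantified by fluorescence polarization. Compounds (23 nl, pintool) incubate with the reagents for 2 hours at ambient room temperature.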
* = called active by the depositor; u = inconclusive; & = joins results of further samples; [ ] = remark or other dose. On the % scale 0 is the no-effect control and ±100 the full control effect; potency means the concentration at half of the fitted maximal effect. Only part of the results is shown (hit frequency here may not be typical).

VDR inhibitor | SMILES
3% | COc1ccc(CC(=O)Nc2ccc(S(=O)(=O)NC(C)C)cc2)cc1
4% | COc1ccc(/C=N/n2c(=O)[nH]c3c([nH]c4ccc(C)cc43)c2=O)cc1CN1CCOCC1
11% | COc1cccc(C(=O)OCC(=O)NCc2ccc3c(c2)OCO3)c1OC
-2% | Cc1cc(Cl)ccc1OCCCC(=O)Nc1cc(S(=O)(=O)N2CCOCC2)ccc1N1CCOCC1
3% | COc1ccc(NC(=O)C2CCCN(S(=O)(=O)c3cnc[nH]3)C2)cc1 (stereo not drawn)
-3% | COc1ccc(-c2cc(C(=O)Nc3ccc(C(N)=O)cc3)c3ccccc3n2)cc1OC
-6% | COc1ccc(COC(=O)C2=C(C)NC(=O)NC2c2cccc(Br)c2)cc1 (stereo not drawn)
8% | CCCCCCc1cc2cc(-c3nnc(-c4ccccc4O)o3)c(=O)oc2cc1O
-9%&-3% | O=C(NCc1ccccc1Cl)C1CCCN(S(=O)(=O)c2cccc3nsnc23)C1 (stereo not drawn)
-4% | CCc1ccc(OCCNC(=O)c2cccs2)cc1
-9% | CC(OC(=O)c1ncc(Cl)c(Cl)c1Cl)C(=O)NC1(C#N)CCCCC1 (stereo not drawn)
17% | CCc1ccccc1NC(=O)Cn1c(SCc2ccc(F)cc2)nc2ccncc21
-2% | CCOc1ncccc1C(=O)OCc1csc(CC(=O)Nc2ccccc2C)n1
3% | CC(C)(C)NC(=O)CSc1nc2scc(-c3ccccc3)c2c(=O)[nH]1
-21% | O=C1O/C(=C/c2ccccc2)N=C1c1ccccc1
18% | C/C=C/C(=O)OCC(=O)Nc1cc(-c2cc(C)c(C)cc2C)nn1-c1ccccc1
-14% | C/C(=N\Nc1ncc(Cl)cc1Cl)c1ccc(S(=O)(=O)NCc2ccco2)cc1
-31% | COC(=O)c1ccc(/C=C/c2c(-c3ccc(OC)cc3)oc3ccccc23)cc1
0% | CC(C)(C)c1ccc(S(=O)(=O)N2CCN(C(=O)c3cc(-c4ccc(Br)cc4)n[nH]3)CC2)cc1
u | CCc1nc(SCC(=O)c2ccc(C)c(C)c2)n[nH]1
-6% | COc1ccc(NC(=O)CSc2cc(-c3ccccc3)nc(C)n2)cc1
-9% | CCOC(=O)c1cc(NC(=O)c2ccc(C)cc2)c(=O)oc1C(F)(F)F
-11% | CCc1cccc2c(=O)c(C(=O)NCCCOC)c[nH]c12
-9% | CC1(C)CC(=O)C(CO)=C(c2cccc3ccccc23)C1=O
10% | CCCN1CCN(C(=O)c2ccc3nc(CC)c(CC)nc3c2)CC1

A different layout for part of the listing above:
Structure,VDR inhibitor
CCc1ccccc1NC(=O)Cn1c(SCc2ccc(F)cc2)nc2ccncc21,17%
CCOc1ncccc1C(=O)OCc1csc(CC(=O)Nc2ccccc2C)n1,-2%

Sorted by number of heavy atoms (descending): 3 of the compounds above.
VDR inhibitor | SMILES
-14% | C/C(=N\Nc1ncc(Cl)cc1Cl)c1ccc(S(=O)(=O)NCc2ccco2)cc1
-6% | COc1ccc(NC(=O)CSc2cc(-c3ccccc3)nc(C)n2)cc1
-9% | CC(OC(=O)c1ncc(Cl)c(Cl)c1Cl)C(=O)NC1(C#N)CCCCC1 (stereo not drawn)

New compounds follow
VDR inhibitor | SMILES
-11%&-15% | C=C1CCN(Cc2ccccc2)S(=O)(=O)c2ccccc21
15% | CC(C)c1nc2n(n1)C1(CCCCC1)[C@@H]1CCCC[C@@H]1N2
-4% | CCOC(=O)/C(=C/C=C/c1ccccc1)NC(=O)c1ccccc1
-3% | Cc1ccc(S(=O)(=O)NCCC(=O)NNC(=O)c2ccccc2O)cc1C
-2% | O=C(CC1C(=O)NCCN1Cc1cccc(Oc2ccccc2)c1)NCCc1cnccn1 (stereo not drawn)
51%[activator] | CCOC(=O)c1c(NC(=O)CSc2nnc(-c3ccncc3)n2Cc2ccco2)sc(C)c1C
-5% | O=C(NC1CC(=O)N(c2ccc(Cl)cc2)C1)C1CCCC1 (stereo not drawn)
5% | COc1ccc(C(=O)Nc2ccc(S(=O)(=O)N3CCOCC3)cc2)cc1OC
-18% | COCCNC(=O)c1ccc2c(c1)N(Cc1cc(C)ccc1C)C(=O)c1ccccc1S2=O (stereo not drawn)
-3% | N#Cc1cc2sc3nnc(-c4ccncc4)n3c2cc1C#N
6% | CC1(C)Oc2ccc3ccc(=O)oc3c2/C(=C/N)C1=O
1% | Nc1[nH]nc2c1NN(c1ccc(Cl)cc1Cl)N2
-8% | COC(=O)[C@H](Cc1ccccc1)NC(=O)NCc1ccc(S(N)(=O)=O)cc1
7% | COCCn1c(SCC(=O)Nc2ccc(C(C)=O)cc2)nc2c([nH]c3ccccc32)c1=O
u | NNC(=O)CNC(c1ccccc1)c1cc(Br)ccc1NC(=O)c1cccc(Cl)c1 (stereo not drawn)
1% | N/C(=N\OC(=O)COc1ccc([N+](=O)[O-])cc1)c1ccncc1
23% | Cc1oc(-c2cc3c(cc2Cl)OCO3)nc1CN1CCCC(C(=O)N2CCOCC2)C1 (stereo not drawn)
u | Cc1c(OCC(=O)NC(Cc2ccc(Cl)cc2)C(=O)O)ccc2c3c(c(=O)oc12)CCCC3 (stereo not drawn)
-6% | CC(=O)N(CC(=O)O)c1ccccc1C(=O)O
u | O=[N+]([O-])c1ccc2nc(-c3ccc(Cl)cc3)n(OCc3ccccc3)c2c1
8% | O=C(N/N=C/c1ccc(O)c(Br)c1)c1cc2c(ccc3ccccc32)o1
7% | Cc1ccc(C(=O)OC(C)C(=O)Nc2ccc(S(N)(=O)=O)cc2)cc1S(=O)(=O)N1CCOCC1 (stereo not drawn)
5% | COCCn1nnnc1C(c1ccccc1)N1CCN(Cc2ccc3c(c2)OCO3)CC1 (stereo not drawn)
-14% | CCCCCN(C(=O)CCC(=O)OCCOc1ccccc1)c1c(N)n(CCCC)c(=O)[nH]c1=O
-11% | CCc1ccc2[nH]c(O)c(N=NC3=NC(=O)CS3)c2c1
8% | O=C(Oc1ccc2ccc(=O)oc2c1)c1ccccc1
4% | Cn1c(N)c(C(=O)COC(=O)c2cccc(S(=O)(=O)NCc3ccccc3)c2)c(=O)n(C)c1=O
-9% | Cc1ccc(Cl)cc1NC(=O)Nc1cn(CC(C)C)c(=O)c2ccccc12
-4% | Cc1cc(C)c(OCC(=O)OCC(=O)NC2CCCCCCC2)c(C)c1
-2% | CC1CC(NC2=NCCS2)CC(C)(C)C1 (stereo not drawn)
1% | Cc1cc(Cl)c2oc(C(=O)NCCN3CCOC3=O)c(C)c2c1
-9% | O=C(CSc1ncn[nH]1)NC1CC2CCC1C2 (stereo not drawn)
6% | CC[N+](CC)(CC)C/C=C/CN1CCCCC1
17% | CC1(C)NC(C)(C)/C(=C\c2cccs2)C(=O)C1=O
12% | COc1cc(C(=O)N2CCN(S(=O)(=O)c3ccc(C(C)C)cc3)CC2)ccc1OCC(=O)N1CCOCC1
-24% | Cc1ccc(C(=O)N2C3=C(CCCC3)C(=O)NC23CCCCC3)cc1
11% | COC(=O)c1ccccc1NCC(=O)c1ccc(OC)cc1
-5% | COC(=O)c1ccccc1NC(=O)CCn1c(=O)c2cccn2c2cccnc21
4% | CC(O)c1nc2ccccc2n1CC(=O)N1CCN(c2ccccc2)CC1 (stereo not drawn)
-13% | O=C(CN1C(=O)NC2(CCCC2)C1=O)OCc1ccccc1
11% | Cc1ccc(S(=O)(=O)Nc2nc(C)cc(NN)n2)cc1
5% | C=CCNC(=O)C1CCN(S(=O)(=O)CC)CC1
-14% | CCn1c(N2CCN(C(=O)c3ccco3)CC2)nc2ccccc21
-8% | COc1ccccc1Oc1ccc(S(=O)(=O)N2CCN(C)CC2)cc1
-14% | Cc1nn(Cc2ccccc2)c(C)c1C(=O)NCCN1C(=O)S/C(=C\c2ccccc2)C1=O
-9% | Cc1cccc(C)c1NC(=O)Cn1cc(C(=O)C2CC2)c2ccccc21
10% | C=CCn1c(COc2ccccc2F)nnc1SCC(=O)NC(=O)NCc1ccco1
40µM* | O=C1C=C(C2OC(CO)C(O)C2O)C(=O)N1 (stereo not drawn)
12% | CCOC(=O)c1c(NC(=O)CSc2nnc(-c3ccc(OC)cc3)o2)sc2c1CCC2
-4% | CC(C)NC(=O)CSc1nnc(-c2ccc(F)cc2)c2ccccc12

Additional results follow:
VDR inhibitor | SMILES
-4% | COc1ccc(/C=N/NC(=O)Cc2n[nH]c(=O)[nH]c2=O)cc1
-12% | O=C(COC(=O)C1(c2cccc(F)c2)CCCC1)NCc1cccs1
-10% | CCOC(=O)CSC1=N/C(=C\c2ccc(OC)c(OC)c2)C(=O)N1C
-30% | CC(=O)C(C)n1cnc2scc(-c3ccc(C)cc3)c2c1=O (stereo not drawn)
1% | Cc1ccc(C(=O)OCC(=O)NCCc2ccccc2)cc1C
-12% | C#CCOCCOCCOCCNc1nc(N2CCN(C(=O)C([C@@H](C)CC)n3cc(C(N)Cc4ccc(O)cc4)nn3)CC2)nc(N2CCN(C(=O)[C@H](CCC(=O)O)n3cc(C(N)CC(C)C)nn3)CC2)n1 (stereo partly drawn)
9% | Cc1cc(CN2C(=O)c3ccccc3C2=O)cc(N2CCOCC2)c1
13% | CCOCCCNC(=S)Nc1ccc(Br)cc1Cl
-16% | Cc1nc(SCc2ccc(F)cc2)c([N+](=O)[O-])[nH]1
-8% | CSCCC(NC(=O)c1ccccc1)C(=O)N/N=C(\C)Cc1ccccc1 (stereo not drawn)
5% | Cc1nc(NCC2CCCO2)nc2c1C(=O)CC(C)C2 (stereo not drawn)
-15% | Cn1c2ccc(Br)cc2c2nnc(SCC(=O)O)nc21
2% | CC(Oc1ccccc1)C(=O)Nc1ccc(C(=O)OCc2cc(=O)n3nc(C(C)C)sc3n2)cc1 (stereo not drawn)
-4% | COc1ccc(O)c(C(c2c(C)[nH][nH]c2=O)c2c(C)[nH][nH]c2=O)c1
13% | NC(=O)c1ccsc1NC(=O)CSc1ccccc1F
12% | COc1ccc(S(=O)(=O)NC2CC(=O)N(c3cccc(F)c3)C2)cc1OC (stereo not drawn)
-9% | CC(C)CC(=O)N[C@H](C(=O)N[C@H](C(=O)N[C@@H](CC(C)C)[C@H](O)CC(=O)N[C@@H](C)C(=O)N[C@@H](CC(C)C)[C@H](O)CC(=O)O)C(C)C)C(C)C
-6% | COc1ccccc1-n1cc(CN2CCN(C3CCCC3)C(CCO)C2)cn1 (stereo not drawn)
9% | Cc1ccc(C)c(NC(=O)CCC(=O)NNC(=S)Nc2ccccc2)c1
-2% | CN(NC(=O)c1ccc(Cl)cc1)c1nc(-c2ccccc2)nnc1C(F)(F)F
-14% | CCCCNC(=O)C(CC)(ONc1ccccc1C(F)(F)F)c1ccccc1 (stereo not drawn)
-7% | COc1cc2ncnc(Nc3ccc(Cl)cc3F)c2cc1OC
1% | Cc1cccc2nc(C(=O)Nc3cc(Cl)ccc3-n3cncn3)cn12
2% | O=C(NCc1cccnc1)c1nnc(Cc2ccc(F)cc2)o1
0% | COc1ccc(C(=O)c2ccc(Cl)c([N+](=O)[O-])c2)cc1
15% | O=C(Cc1ccc([N+](=O)[O-])cc1)Nc1cccc(C(=O)N2CCOCC2)c1
13% | CCOCCCn1c(=NC(C)=O)c(C#N)cc2c(=O)n3cccc(C)c3nc21
-10% | Cc1ccc(NC(=O)/C(C#N)=C/c2ccc(C)o2)cc1
11% | O=C(NC1CCS(=O)(=O)C1)c1cccc(Cl)c1 (stereo not drawn)
-2% | COC(=O)N[C@@H](CCc1ccccc1)[C@]1(C(C)=O)CCCC1=O
-3% | CCC(C)(C)c1ccc(Oc2ccc(NC(=O)COC(=O)C3=COCCO3)cc2)cc1
5% | Clc1ccc(CSc2nnc3ccccn23)c(Cl)c1
14% | N#Cc1c(C(F)(F)F)cc(-c2cccs2)nc1SCC(=O)Nc1ccccc1F
-10% | CCOC(=O)c1sc(NC(=O)CSc2nnnn2-c2ccccc2)nc1C
12% | CC(=O)N/C(=C\c1cccc([N+](=O)[O-])c1)C(=O)NC1CCCCC1
-1% | CC1CCCCN1S(=O)(=O)c1ccc(C(=O)Nc2nnc(-c3cccs3)o2)cc1 (stereo not drawn)
-18% | CCC(=O)Nc1ccc(S(=O)(=O)NCCc2ccccc2)cc1
-16% | O=C(CCN1CCCCC1)N=Nc1c(O)[nH]c2ccccc12
23% | Nn1cc(-c2ccccc2)nc1SCC(=O)N1CCN(S(=O)(=O)c2ccc(Cl)cc2)CC1
6% | O=c1c(-c2cc3ccccc3o2)[n+]([O-])c2ccccc2n1OCc1ccccn1
-1% | CC1=C(C(=O)OC2CCCCCC2)C(c2ccc(C)o2)C2=C(CCCC2=O)N1 (stereo not drawn)
-14% | CCCOc1ccccc1/C=N/Nc1ccnc(=O)[nH]1
9% | CSc1ccc(Cl)c(C(=O)OCC(=O)NCc2ccco2)c1
5% | CCOc1cccc2cc(-c3nc(-c4ccccc4C)no3)c(=O)oc12
10% | CCOc1ccc(CNC(=O)c2ccc3c(c2)nc2n3CCOC2)cc1
7% | O=C(CN1CCN(c2ccc(F)cc2)CC1)N1CCOCC1
7% | S=c1[nH]nc(C2(c3ccccc3)CCCC2)o1
0% | COc1ccc(-c2oc3ncn4nc(-c5ccccc5OC)nc4c3c2-c2ccc(OC)cc2)cc1

Looked up above.
CCOC(=O)c1sc(NC(=O)CSc2nnnn2-c2ccccc2)nc1C @ VDR inhibitor: -10%
CCOc1cccc2cc(-c3nc(-c4ccccc4C)no3)c(=O)oc12 @ VDR inhibitor: 5%
O=C(Cc1ccc([N+](=O)[O-])cc1)Nc1cccc(C(=O)N2CCOCC2)c1 @ VDR inhibitor: 15%
CCOCCCn1c(=NC(C)=O)c(C#N)cc2c(=O)n3cccc(C)c3nc21 @ VDR inhibitor: 13%

Pulled one by one from above, 2 records:
VDR inhibitor | SMILES
-3% | CCC(C)(C)c1ccc(Oc2ccc(NC(=O)COC(=O)C3=COCCO3)cc2)cc1
0% | COc1ccc(-c2oc3ncn4nc(-c5ccccc5OC)nc4c3c2-c2ccc(OC)cc2)cc1

High-throughput results from PubChem.
